CapD inh: Bacillus anthracis CapD inhibitors, primary screen, biochemical, fluorescence intensity; purified CapD enzyme, fluorescence intensity read-out; stronger effect = lower value; some hits fall short of the stated cut; z-score (concentration not given with the values); actives 0.23% (n = 140,000);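 active means z-score under -4 in either of two replicates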;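 further: stock transfer was 100 nL into about 40 µL; score is relative to mean and spread of the plate; one replicate is shown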
AID504770: growth inhibition of E. coli YBA685, primary screen, V. cholerae RctB inhibitors. z-score (test concentration not listed). actives 0.27% (n = 130,000). E. coli YBA685 rctB-dependent plasmid, OD600 growth, 3 h; stronger effect = lower value;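 active means z-score under -2 on both plates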;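 further: wells of about 30 µL received 100 nL stock; score is relative to mean and SD of the test wells; the first replicate is given; strong numbers were not always called active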
Active calls of the source: *; / = not tested or not shown; & = joins results of further samples.

SMILES	CapD inh	AID504770
NC(=O)N/N=C/c1c(F)c(F)c(F)c(F)c1F	/	0.9
C=C1N(c2ccccc2C)C(=O)OC1(C)C	-0.46	-1.2
CCOC(=O)C(C)(C)Sc1nc2c(cnn2-c2ccc(Cl)cc2)c(=O)[nH]1	-0.95	2
Cc1ccc(Cl)cc1-n1ncc2c(NCC3CCCO3)ncnc21 (stereo not drawn)	0.84	-1.3
CC1CCCN(C/C(O)=C(\C#N)c2nc3ccccc3[nH]2)C1 (stereo not drawn)	-1.9	-0.75
OP(Oc1ccccc1)(Oc1ccccc1)=P(O)(Oc1ccccc1)Oc1ccccc1	/	-1.5
CCN(CC)S(=O)(=O)c1ccc(NC(=O)COC(=O)Cn2[nH]c(=O)c3ccccc3c2=O)cc1	/	-0.25
CCN(CC)C(=O)CSc1n[nH]c(=S)s1	/	0.8
Cc1ccc(-c2nn(-c3ccccc3)cc2/C=C/C(=O)OCC(N)=O)o1	/	0.5
CN1C(=O)Oc2ccc(Cl)cc2C1O (stereo not drawn)	-0.34	-0.65
CSc1nc(N)nc(SCC(=O)Nc2ccccc2[N+](=O)[O-])c1C#N	-0.66	/
O=C(Nc1nonc1NC(=O)c1ccccc1)c1ccccc1	0.01	0.35
CC(C)(C)c1csc(N/N=C/c2ccc(Cl)cc2)n1	-1.2	/
Cc1onc(-c2ccccc2Cl)c1C(=O)N1CC(C)CC(C)C1 (stereo not drawn)	-0.52	-0.9
CSc1nnnn1-c1ccc(C(N)=O)cc1	0.4	-0.8
O=C(CN1C(=O)c2ccccc2C1=O)Nc1cccnc1	/	-0.35
N#Cc1c(Nc2ccccc2)sc(C(=O)c2cccs2)c1N	/	0.25
CCOC(=O)C1CCN(c2ccccc2CN2CCCc3cc(C)ccc32)CC1	-0.11	-0.75
NC[C@@H]1O[C@H](O[C@@H]2[C@@H](CO)OC(O[C@@H]3[C@@H](O)[C@H](N)C[C@H](N)[C@H]3O[C@H]3O[C@H](CO)[C@@H](O)[C@H](O)[C@H]3N)[C@@H]2O)[C@H](N)[C@@H](O)[C@@H]1O (stereo partly drawn)	/	-0.1
COc1ccc(C2=NC(=O)/C(=C\c3cccc(F)c3)O2)cc1	-0.29	1.8
O=C(c1cnc(N2CCCC2)nc1)N1CCCC1	5.3	-1.4
C=CCn1c(COc2cccc(C)c2)nnc1SCC(=O)N1CCNC1=O	/	-0.4
Cc1ccc(CCOC(=O)NC2CCN(Cc3c(C)nn(-c4ccccc4)c3C)C2)cc1 (stereo not drawn)	0.28	/
CCc1ccc2c(CSc3nnc(-c4ccco4)o3)cc(=O)oc2c1	/	1.4
CCOC(=O)c1c(CN2CCN(c3ccccc3C)CC2)n(Cc2ccccc2)c2cc(Br)c(O)cc12	0.11	/
NC(=O)CSc1nnc(-c2ccccc2)o1	/	0.65
O=C(Nn1c(SCc2cc(=O)n3cc(Cl)ccc3n2)nc2ccccc2c1=O)c1ccccc1	2.9	/
COC(=O)c1sccc1NC(=O)C(C)(C)C	-0.28	1.5
CN(C)c1ccc(/C=C(/C#N)c2ccc(C#N)cc2)cc1	-1.5	0.45
CC(=O)N1CCOCCN(C(C)=O)CCOCC1	/	-0.5
N#Cc1ccc(-c2ccc(F)cc2)nc1Oc1cccc(Cl)c1Cl	0.42	/
O=C(CCCN1CCN2CCCC2C1)c1ccc(F)cc1 (stereo not drawn)	-0.4	-0.35
Cc1cccc(NC(=O)c2sc3nc4c(c(-c5ccco5)c3c2N)CCCC4)c1	-0.7	/
Cc1c(Cl)cccc1N1CC(C(=O)O)CC1=O (stereo not drawn)	-0.36	-0.45
Clc1ccccc1Nc1nc(-c2ccc(-c3ccccc3)cc2)cs1	14	/
CC(C)(C)NC(=O)c1ccc2ccccc2n1	0.61	1.1
Nn1c(SCc2nnc(-c3ccccc3)o2)nnc1-c1ccncc1	/	0.1
COc1ccc(C2SCC(=O)N2c2c(C)n(C)n(-c3ccccc3)c2=O)cc1 (stereo not drawn)	0.41	/
Cn1c(COc2ccccc2Br)nc2ccccc21	/	1.3
O=C1C=C(c2ccc(Cl)cc2)OC2(CCCC2)O1	-0.42	-1.1
Cc1nn(-c2ccccc2)nc1C(=O)NNC(=O)c1ccc(-n2nc(C(C)(C)C)cc2C(C)(C)C)cc1	-0.28	/
CCOC(=O)c1cnn(-c2nc(C)cc(C)n2)c1N	0.13	-0.9
CCOC(=O)c1sc2nc(CC(=O)OC)nc(NCCCN3CCOCC3)c2c1C	52	/
CCCS(=O)(=O)c1c(S(=O)(=O)CCC)c2cc(-c3ccncc3)ccn2c1C(=O)N/N=C/c1cc(O)cc(O)c1	-0.23	/
CN/C(=C\C(=O)C(F)(F)F)c1ccccc1	/	0
CCCCc1ccc(NC(=O)COC)cc1	0.46	-0.4
CC1=C(n2cnc([N+](=O)[O-])c2)C(c2cccnc2)C(C#N)=C(N)O1 (stereo not drawn)	-0.94	/
COc1ccc(NS(=O)(=O)c2ccc(N)cc2)nn1	-0.56&1.6	-1.1
C[n+]1cccc(O)c1I	/	-0.65
Cc1cnc(C(=O)NC(C)CCc2ccccc2)cn1 (stereo not drawn)	-0.18	-0.65
Cc1nnc(NC(=O)CSc2nnc(CNC(=O)c3ccco3)n2-c2cccc(C)c2C)s1	0.59	-0.05
Cn1c(=N)n(CC(=O)C(C)(C)C)c2ccccc21	/	0.25
CC(C)(C)NC(=O)CSc1nc(-c2cccs2)ccc1C#N	101	-0.75
Cc1cc(OCCCN2CCCC2)ccc1C(C)C	0.03	-0.6
O=C(CSc1nccn1-c1ccccc1)Nc1ccccc1F	-0.41	-0.85
O=c1cccc2n1CC1CC2CN(CC(O)CN2CC3CC(C2)c2cccc(=O)n2C3)C1 (stereo not drawn)	0.38	1.6
C/C(CN1C(=O)c2ccccc2C1=O)=N\Nc1ccccc1Cl	/	-0.05
O=C(OCc1nc(-c2ccc(Cl)cc2)cs1)N1CCC2(CC1)C(=O)NCN2c1ccccc1	-0.48	/
O=C(c1ccccc1)n1nc(-c2cccnc2)nc1NCc1cccs1	-0.47	1
Cn1c(=O)cc2c3c(c(Nc4cccc(Cl)c4)ccc31)C(=O)c1ccccc1-2	-0.055	/
(cont.)
SMILES	CapD inh	AID504770
COC(=O)C1=C(NC(=O)c2ccccc2C)CCS1	-1.1	1.1
CC1CCCC(C)N1C(=O)COC(=O)C1CCCCC1 (stereo not drawn)	/	-0.35
C[C@]12CCC(=O)C[C@H]1CC(=O)[C@@H]1[C@@H]2CC(=O)[C@]2(C)CCC[C@@H]12 (tested in a mixture with another compound)	-0.02	/
CN(C)/N=C/c1ccc(C(O)(c2nc3ccccc3s2)C(F)(F)F)o1 (stereo not drawn)	/	-0.4
c1cc(CSC2=NCCS2)nc(CSC2=NCCS2)c1	0.11	0
COc1ccc(-c2cc(C)nc(SCC(=O)Nc3ccccc3)n2)cc1	-0.22	-0.2
CCOC(=O)c1c(S(=O)(=O)Nc2ccc(Cl)cc2)c(C)n(-c2ccccc2)c1C	9.4	-0.2
Cc1ccc(/C=N/n2cnnc2)c(C)c1	-0.33	-0.4
CN(C)c1ccc(/C=N/S(=O)(=O)c2cccs2)cc1	/	0.05
CC(C(=O)N1CCCCC1)N(C)CC(=O)Nc1ccc(Cl)c(C(F)(F)F)c1 (stereo not drawn)	/	1.5
Clc1cccc(Cl)c1-c1nnc2cccc(Cl)n12	-0.3	/
FC(F)(F)c1cc(-n2c(CCc3nc(-c4ccc(Cl)cc4)no3)n[nH]c2=S)cc(C(F)(F)F)c1	0.73	/
CCC(Cc1ccccc1)NC(=O)c1ccc2c(c1)NC(=O)c1ccccc1S2 (stereo not drawn)	0.4	1.1
O=C(CCC(=O)N1CCC(c2nc(-c3cccnc3)no2)CC1)NCc1cccc(C(F)(F)F)c1	-0.33	/
CC(C)=CC(=O)NCCc1ccccc1	0.16	-0.95
Oc1cccnc1Cc1ccccc1	9.8	1.2
Cn1c(C(=O)O)c(CNCCc2ccco2)c2ccccc21	0.9	-0.5
O=C(NC1CC1)c1ccc(CS(=O)(=O)c2ccccc2)o1	-0.53	-0.75
CCNC(=S)N1CCN(CCN=C(C)c2c(C(F)(F)F)[nH]n(-c3nc4ccccc4s3)c2=O)CC1	1.3	/
CSc1nc(NC(=O)C/C=N\OCc2ccc([N+](=O)[O-])cc2)nn1C	-0.075	/
CCN(Cc1ccncc1)S(=O)(=O)c1cc(/C=C/C(=O)O)cc(OC)c1OC	/	0.2
CCOc1nc(N)nc(NC)n1	2.2	2.5
CCn1nc(C)cc1-c1nnc(-c2ccccc2Cl)o1	-0.46	0
O=C(Nc1ccc2oc(-c3ccccc3Br)nc2c1)c1cccc([N+](=O)[O-])c1	-1	/
COc1cccc(C2=N/C(=C/c3ccccc3OC)C(=O)N2c2ccc(OC)c(OC)c2)c1	-0.85	/
CNC(=O)CSc1nc(-c2ccccc2)cn1N	/	0.3
NC(=O)NC(CC(=O)N1CCc2ccccc2C1)c1ccc(Cl)cc1 (stereo not drawn)	/	-1.4
Cc1ccc2oc(=O)c3cc(C(=O)NCc4cccs4)sc3c2c1	0.35	-0.85
Cc1ccc(N=C2SCC(=O)N2C)cc1	-1	0
COc1ccc(-c2nc(COc3ccc(Cl)cc3Cl)no2)cc1	0.5	-0.85
CCn1c(Cc2ccc(OC)cc2)nnc1SCC(=O)NC1=NCCS1	/	-0.4
Cc1cc(=O)oc2c3c(ccc12)OCN(c1ccccc1Cl)C3	21	/
O=C(CNC(=O)c1ccccc1Cl)Nc1ccc(S(=O)(=O)N2CCOCC2)cc1	/	-4.5
O=C(CN1C(=O)S/C(=C\c2c(Cl)cccc2Cl)C1=O)Nc1cc([N+](=O)[O-])ccc1O	-0.43	/
O=C(c1ccccc1)N1N=C(c2ccccc2)CC1c1ccc2c(c1)OCO2 (stereo not drawn)	-0.2	/
O=C1CCCC2=C1C(c1ccccc1)C1C(=O)c3ccccc3C1=N2 (stereo not drawn)	-0.12	/
COc1ccc(C=Nc2cc(NS(C)(=O)=O)ccc2C)cc1	-0.2	-0.3
CC1CCN(c2cc(N3CCN(C(=O)c4cccc(F)c4F)CC3)c([N+](=O)[O-])cc2F)CC1	-0.18	/
CC(CCc1ccccc1)Nc1ccc2c(c1)OCO2 (stereo not drawn)	13	-1.4
CC(=O)c1cc2cc(Br)ccc2oc1=O	0.14	/
N#CC(C#N)=Cc1cccn1CCCn1ccnc1	-1.8	-0.35
CC1CC(c2ccccc2)n2ncnc2N1 (stereo not drawn)	-0.47	0.5
CCN(CC)C(=O)N[C@@H]1CC2c3cccc4[nH]cc(c34)CC2N(C)C1 (stereo partly drawn)	8.2	/
CC1(C)CC(=O)C(C=Nc2ccc(OC(F)(F)F)cc2)=C(O)C1	-0.37	-0.5
CCOC(=O)C(Cc1ccccc1)C(=O)Nc1cccc(C)n1 (stereo not drawn)	0.17	-0.4

Among those listed so far, these have a COOH group.
SMILES	CapD inh	AID504770
Cc1c(Cl)cccc1N1CC(C(=O)O)CC1=O (stereo not drawn)	-0.36	-0.45
Cn1c(C(=O)O)c(CNCCc2ccco2)c2ccccc21	0.9	-0.5
CCN(Cc1ccncc1)S(=O)(=O)c1cc(/C=C/C(=O)O)cc(OC)c1OC	/	0.2

(cont.)
SMILES	CapD inh	AID504770
O=C(N1CCOCC1)C(Cl)(Cl)Cl	0.18	/
CCOC(=O)c1cc2c(C(F)(F)F)cc(-c3cccs3)nc2o1	/	2.3
CCOC(=O)c1sc(SC)c2c1CC(c1ccc(C)cc1)CC2=O (stereo not drawn)	-0.08	/
Cn1c(=O)c2[nH]c(SCC(=O)c3ccc(-c4ccccc4)cc3)nc2n(C)c1=O	/	-0.65
O=C(NC1CCCCCC1)C1COc2ccccc2O1 (stereo not drawn)	/	0.1
Cc1ccc(C)c(N2CCN(C(=O)C34CC5CC(C3)CC(n3nnc(C)n3)(C5)C4)CC2)c1	-0.15	-0.7
Cn1nc(C(F)(F)F)c(C#N)c1S(=O)(=O)Cc1ccc(C(C)(C)C)cc1	0.25	/
CCOCCOC(=O)C1=C(C)NC2=C(C(=O)CC(C)(C)C2)C1c1cc(OC)c(OC)cc1Br (stereo not drawn)	2.2	/
COc1cc(OC)c(C2CC(=O)Nc3c2ccc2ccccc32)cc1OC (stereo not drawn)	1.1	/
CN1CC(=Nc2nonc2N)N(C)C1=O	/	0.4
C/C(=C/C(=O)C(F)(F)F)N1CCN(Cc2ccccc2)CC1	/	-0.15

Structural class: those above with an aryl thioether with sulfur outside any ring (18)
SMILES	CapD inh	AID504770
CCOC(=O)C(C)(C)Sc1nc2c(cnn2-c2ccc(Cl)cc2)c(=O)[nH]1	-0.95	2
CCN(CC)C(=O)CSc1n[nH]c(=S)s1	/	0.8
CSc1nc(N)nc(SCC(=O)Nc2ccccc2[N+](=O)[O-])c1C#N	-0.66	/
CSc1nnnn1-c1ccc(C(N)=O)cc1	0.4	-0.8
C=CCn1c(COc2cccc(C)c2)nnc1SCC(=O)N1CCNC1=O	/	-0.4
CCc1ccc2c(CSc3nnc(-c4ccco4)o3)cc(=O)oc2c1	/	1.4
NC(=O)CSc1nnc(-c2ccccc2)o1	/	0.65
O=C(Nn1c(SCc2cc(=O)n3cc(Cl)ccc3n2)nc2ccccc2c1=O)c1ccccc1	2.9	/
Nn1c(SCc2nnc(-c3ccccc3)o2)nnc1-c1ccncc1	/	0.1
Cc1nnc(NC(=O)CSc2nnc(CNC(=O)c3ccco3)n2-c2cccc(C)c2C)s1	0.59	-0.05
CC(C)(C)NC(=O)CSc1nc(-c2cccs2)ccc1C#N	101	-0.75
O=C(CSc1nccn1-c1ccccc1)Nc1ccccc1F	-0.41	-0.85
COc1ccc(-c2cc(C)nc(SCC(=O)Nc3ccccc3)n2)cc1	-0.22	-0.2
CSc1nc(NC(=O)C/C=N\OCc2ccc([N+](=O)[O-])cc2)nn1C	-0.075	/
CNC(=O)CSc1nc(-c2ccccc2)cn1N	/	0.3
CCn1c(Cc2ccc(OC)cc2)nnc1SCC(=O)NC1=NCCS1	/	-0.4
CCOC(=O)c1sc(SC)c2c1CC(c1ccc(C)cc1)CC2=O (stereo not drawn)	-0.08	/
Cn1c(=O)c2[nH]c(SCC(=O)c3ccc(-c4ccccc4)cc3)nc2n(C)c1=O	/	-0.65

Screening results (PubChem BioAssay)
